GALR2 ag = activates the human galanin receptor 2 | GALR2-expressing cells, agonist activation read-out | 140,000 compounds, 0.48% hits | AID 803 | activation, %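 (tested at 5 µM)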;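 active means above mean plus 3 SD of all compounds, about 5% in these data, not always enough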;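 further: 0% = vehicle buffer wells and 100% = reference agonist at full effect; tested in CHO reporter cells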
RGS16-Gao HTS = modulates binding between human RGS16 and Galphao; O15492+P09471; bead-based flow cytometry RGS16-Galphao binding, fluorescence; actives lie on both sides; binding response (% of control), % at 10 µM; 220,000 compounds, 0.38% hits; AID 1441;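 active means below 25% or above 175%, edge rows of some plates excepted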;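 further: Galphao activated by GDP with aluminum fluoride before binding; 100% = wells without compound and 0% = beads without RGS; some results beyond the cut were filed as inactive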
INS promoter inh = TRM-6 insulin promoter activity inhibition. TRM-6 cells (human fetal islet line), insulin promoter-eGFP reporter, imaging; reporter expression induced with tamoxifen. inhibition, % at 2 µM. 130,000 compounds, 0.9% hits. AID 1273;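 active means inhibition above the mean plus 3 SD, with well images judged a real hit on visual review, cut at about 60% in these data, passing the limit was not always enough; inconclusive means inhibition over the cutoff but images rejected on review; inactive means inhibition not above the cutoff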
PKD1 kinase inh = inhibitors of human PKD1 kinase; Q15139; PKD1 kinase fluorescence polarization assay; inhibition, %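 (about 10 µM by stock and volumes)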; 200,000 compounds, 0.056% hits;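 active means inhibition of 50% or more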;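 further: controls were vehicle for no effect and a reference inhibitor for full effect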
Target sequence (Q15139 whole entry, looked up): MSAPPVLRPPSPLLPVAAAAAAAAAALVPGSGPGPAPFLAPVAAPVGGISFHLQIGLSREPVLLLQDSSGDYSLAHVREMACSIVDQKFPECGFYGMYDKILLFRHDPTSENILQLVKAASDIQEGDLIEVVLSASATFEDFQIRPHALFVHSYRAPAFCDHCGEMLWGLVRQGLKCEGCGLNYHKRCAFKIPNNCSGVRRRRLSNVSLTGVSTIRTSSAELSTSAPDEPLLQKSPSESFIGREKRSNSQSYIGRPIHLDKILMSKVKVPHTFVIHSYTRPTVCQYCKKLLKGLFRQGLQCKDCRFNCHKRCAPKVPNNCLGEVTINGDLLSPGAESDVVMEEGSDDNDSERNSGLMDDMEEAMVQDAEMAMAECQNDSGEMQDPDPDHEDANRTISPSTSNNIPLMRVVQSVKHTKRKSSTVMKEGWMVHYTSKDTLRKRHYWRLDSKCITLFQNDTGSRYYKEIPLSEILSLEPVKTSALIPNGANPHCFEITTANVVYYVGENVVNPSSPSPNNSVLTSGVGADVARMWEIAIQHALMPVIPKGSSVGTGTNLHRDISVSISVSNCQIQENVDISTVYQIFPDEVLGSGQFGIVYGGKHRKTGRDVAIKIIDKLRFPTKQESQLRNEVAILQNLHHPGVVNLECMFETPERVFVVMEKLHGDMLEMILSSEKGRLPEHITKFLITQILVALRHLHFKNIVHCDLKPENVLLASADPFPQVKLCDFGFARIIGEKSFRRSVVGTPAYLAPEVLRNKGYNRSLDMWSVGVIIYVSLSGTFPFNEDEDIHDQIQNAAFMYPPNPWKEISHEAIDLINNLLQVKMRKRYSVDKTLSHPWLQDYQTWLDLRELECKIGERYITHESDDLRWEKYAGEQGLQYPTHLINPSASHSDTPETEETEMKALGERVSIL
HSV replic up = increases HSV replication in cells; 220,000 compounds, 0.005% hits; maximum fold increase; HSV replication augmentation in cells, fold increase;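 active means peak rise of 1.5-fold or more in the series; inconclusive means self-fluorescent or not available for retest; tested in PC3 cells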;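 further: first round at 10 µM; read as green reporter fluorescence; hits show the peak of a series up to 25 µM; 1 = signal of infected wells without compound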
INS promoter inh cell count = second read-out of INS promoter inh, no call of its own (marks repeat the call); normalized cell count, %; measured here: cell count, toxicity; reference of the scale not given here;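 cells exposed to compound for 48 h; stained nuclei by imaging scaled within each plate; lower means fewer cells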
HSV replic up primary fold = recorded beside HSV replic up, whose call it bears; fold increase; compound at 10 µM; measured here: primary screen fold increase 10 uM; tested in PC3 cells;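 GFP signal in the first replicate; 1 = infected wells without compound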
Starred values were filed as active, the others as inactive; i = inactive; u = inconclusive; x = not tested or not shown.

SMILES	GALR2 ag	RGS16-Gao HTS	INS promoter inh	INS promoter inh cell count	PKD1 kinase inh	HSV replic up	HSV replic up primary fold
OCCN1CCN(c2ncnc3c2c(-c2ccccc2)cn3-c2ccc(Br)cc2)CC1	x	173	x	x	4	i	0.56
COc1ccc(-c2cn(-c3ccc(OC)cc3)c(=S)[nH]2)cc1	-0.5	81	x	x	1	i	1.1
O=C(OCc1nc2ccccc2[n+]([O-])c1C(=O)c1ccccc1)c1cccs1	-0.9	106	17	57	-7	i	0.84
CC(C)(C)C(=O)Cn1c(NCCO)nc2ccccc21	-1.1	99	40	139	-8	i	0.97
CCOc1ccccc1/C=N/Nc1nc2c(N)ncnc2n1[C@H]1O[C@@H](CO)[C@H](O)[C@@H]1O	x	102	x	x	x	i	1
COCCN(C(=S)Nc1c(C)cccc1C)C(C)c1cccnc1 (stereo not given)	-1.6	94	33	146	2	i	0.9
CCOC(=O)C1CCN(C(=O)C(C)Oc2ccc(Br)cc2)CC1 (stereo not given)	x	102	20	117	-5	i	1
Cc1ccc(S(=O)(=O)N2CCC(=O)N(CCO)CC2)cc1	-1.4	103	35	136	-4	i	0.95
COc1ccc(-c2nc3ccc(N4CCN(C)CC4)cc3c(=O)[nH]2)cc1	x	107	26	47	8	i	1.1
Cc1nccn1CCCNCc1c(C(=O)N2CCCCCCC2)nc2ccc(Cl)cn12	x	99	x	x	-3	i	1
CNC(=O)COC(=O)c1cc(F)c(F)cc1Cl	-0.6	101	19	103	-8	i	0.93
CCC(CC)C(=O)Nc1cc(C)c2c(=O)oc3ccccc3c2n1	x	109	x	x	-10	i	0.99
Cc1ccc(S(=O)(=O)N(C)Cc2ccc(C(=O)NN=C3C4CC5CC(C4)CC3C5)cc2)cc1	-0.3	99	x	x	2	i	0.93
CCSc1nc(-c2cccs2)nc2ccccc12	x	95	x	x	-2	i	0.92
COC(=O)c1cc(COc2ccc3oc(C)c(C(=O)OC(C)C)c3c2)c(C)o1	0.4	102	-19	100	0	i	0.97
N#CCSc1nnc(-c2cnccn2)n1Cc1ccccc1	-1.9	113	-7	79	-12	i	1
COc1ccc(C2NC(=S)NC(C)=C2C(=O)Nc2ccccn2)cc1OC (stereo not given)	-1.4	63	x	x	-3	i	0.96
Cc1ccc(C(CC(=O)c2ccco2)SCCO)cc1 (stereo not given)	-1.9	105	8	87	1	i	0.95
Cc1ccc(S(=O)(=O)NCCOC(=O)Nc2sc(=S)n(C)c2C)cc1	0.4	101	-25	78	0	i	0.93
COC(=O)C1=C(C)Nc2nc3ccccc3n2C1c1cc(OC)c(OC)c(OC)c1 (stereo not given)	x	100	x	x	x	i	1.1
Nc1nnc(SCc2cn3cc(Cl)ccc3n2)s1	x	102	x	x	-9	i	0.8
COc1ccc(Cl)cc1NC(=O)CN1c2ccccc2CC1C (stereo not given)	x	116	-45	159	-2	i	0.97
Cc1nc(SCc2cccc(F)c2)[nH]c(=O)c1C#N	154*	101	x	x	5	i	0.95
c1ccc(Cn2cc(CN3CCCCO3)c(-c3ccc4c(c3)OCO4)n2)cc1	x	94	x	x	-8	i	1
O=c1c2ccccc2nnn1CSc1ccc2c(c1)OCCO2	-2.5	98	29	94	-9	i	0.85
COC(=O)c1cnc2c(c1C(=O)OC)c(=O)n(C)c(=O)n2C	0.2	131	-17	84	-6	i	1
Cc1ccc(-c2nnc(NCc3nc4ccccc4[nH]3)c3ccccc23)cc1S(=O)(=O)N(C)C	1.1	103	41	97	1	i	0.99
CC1CC(C)CN(CC(=O)N2CCCc3c2c(=O)oc2ccc(OCc4ccccc4)cc32)C1 (stereo not given)	1.3	102	x	x	-2	i	0.98
COc1ccc(OC2C(=O)N(Cc3ccc4c(c3)OCO4)C2c2sccc2C)cc1 (stereo not given)	-4.0	103	x	x	-2	x	x
CCOc1ccccc1NC(=O)C(=O)NCCC1=CCCCC1	x	104	x	x	-4	i	0.85
CC(Sc1ncnc2sccc12)C(=O)Nc1ccc(C(N)=O)cc1 (stereo not given)	x	102	21	120	3	i	0.85
COc1cnn(-c2ccc(C)cc2)c(=O)c1SCc1ccccc1	-2.7	108	x	x	-8	i	0.95
CC(C)NC(=S)Nc1ccc(S(=O)(=O)Nc2ncccn2)cc1	-0.6	102	-87	111	-2	i	0.92
Cc1nn2c3ccccc3n(CC(=O)c3cccs3)c2nc1=O	x	98	x	x	-9	i	1
COc1cc(CN2CCN(c3cccc(Cl)c3)CC2)cc(OC)c1OC	-2.2	66	-43	82	-8	i	0.67
Cc1cccc(OCC(O)Cn2c(NCCCOC(C)C)nc3c2c(=O)[nH]c(=O)n3C)c1 (stereo not given)	-1.2	100	x	x	2	i	0.91
Cc1ccc(S(=O)(=O)N(C)C)cc1NC(=O)COC(=O)CCC(=O)c1ccc(F)cc1	-0.3	99	x	x	0	i	1
COc1cc(/C=C2\CCOC2=O)cc(OC)c1OC	x	98	x	x	x	i	1
COc1ccc(C(=O)Nc2ccc(S(=O)(=O)NC(C)=O)cc2)cc1	-2.7	103	x	x	-4	i	1.2
CCCCCNC(=O)Cc1ccc(OC)cc1	-1.1	99	31	110	-11	i	1.1
CCCCC/C=N/NC(=O)c1[nH]c2ccc([N+](=O)[O-])cc2c1C	x	97	x	x	x	i	0.95
COC(=O)c1cc(=O)n(Cc2ccccc2)c(=NCc2ccccc2)s1	x	104	x	x	-1	i	0.96
CC1(C)OC(=O)C(=C2CCCN2)C(=O)O1	-1.8	113	39	108	5	x	x
CCOC(=O)CSc1nc2c(c(=O)n(C)c(=O)n2C)n1CCCc1ccccc1	-1.3	108	29	112	-14	i	1
CCOC(=O)c1cc2c(=O)[nH]ccc2nc1C	-0.8	104	x	x	2	i	1
Cc1ccc2nc(Nc3ncc4c(n3)CC(C)(C)CC4=O)nc(C)c2c1	x	102	x	x	2	i	1.1
COCCOC(=O)C1=C(C)NC2=C(C(=O)CC(C)(C)C2)C1c1ccc2c(c1)OCO2 (stereo not given)	0.4	117	x	x	-2	i	0.97
Cc1ccc(-c2cc(C(=O)NCc3cnn(C)c3C)c3cc(Br)ccc3n2)cc1	0.0	46	-56	92	-2	i	1.1
CCOC(=O)c1nc(C)[nH]c1C(=O)OCC	-1.2	107	-36	53	-8	i	0.79
O=C(Nc1ccc(-n2cnnn2)cc1)C1CCCN1C(=O)NC1CCCCC1 (stereo not given)	-0.6	110	-2	131	-9	i	1
CC(/C=C/c1ccccc1)=N/NC(=O)c1cccc(Br)c1	x	101	37	84	-4	i	0.74
Cn1c(=O)c2c(ncn2CC(=O)Nc2ccc(Cl)cc2Cl)n(C)c1=O	-1.2	104	-19	99	5	i	0.98
COCCn1c(SCC(=O)c2ccc3c(c2)OCCO3)nnc1-c1ccoc1C	-1.8	98	x	x	6	i	0.9
O=C(NCc1cccs1)C1CCN(S(=O)(=O)c2cccc3nsnc23)CC1	0.0	102	8	160	-8	i	1
O=C(Cc1cccs1)NCCn1ccc2ccccc21	-1.7	106	x	x	-6	i	1.2
O=C(Nc1ccc(Cl)cc1)C1CCC(=O)N1Cc1ccccc1Cl (stereo not given)	-0.5	108	-28	44	-10	i	1.1
N#Cc1c(NC(=O)CSc2nnc(-c3ccccc3)o2)sc2c1CCCC2	-2.2	106	52	83	-7	i	0.99
Cn1c(NC(=O)c2ccc(F)cc2)c(-c2cccs2)c(=O)c2ccccc21	x	101	x	x	x	i	1.2
COc1ccc(Oc2nc3c(C)cccn3c(=O)c2/C=C(\C#N)C(N)=O)cc1	x	95	x	x	x	i	0.77
O=[N+]([O-])c1ccc(Cl)c(/C=N/n2c(-c3ccncc3)n[nH]c2=S)c1	x	96	x	x	x	i	0.95

With a hit mark in GALR2 ag, among the entries above:
structure	GALR2 ag	RGS16-Gao HTS	PKD1 kinase inh	HSV replic up	HSV replic up primary fold
Cc1nc(SCc2cccc(F)c2)[nH]c(=O)c1C#N	154*	101	5	i	0.95

(list continues)
SMILES	GALR2 ag	RGS16-Gao HTS	INS promoter inh	INS promoter inh cell count	PKD1 kinase inh	HSV replic up	HSV replic up primary fold
O=C(CSc1nnnn1-c1ccc2c(c1)OCCO2)OC1CCCCC1	-1.8	102	21	125	2	i	0.84
Cc1cc(OCC(=O)N2CCCC2)ccc1Cl	-1.9	104	9	121	9	i	1.1
Cc1nc2ccc(F)cc2cc1C(=O)NC(C)C	-3.0	i	x	x	-7	i	0.93
O=C(O)c1cn(-c2ccccc2)nc1-c1ccncc1	-3.1	102	48	129	-12	i	1.1
C(=N\NC1=Nc2cccc3cccc1c23)/c1ccccc1	-2.6	88	-34	72	-5	i	1.2
OCCN(Cc1ccccc1)Cc1ccccc1F	-0.4	104	-23	84	4	i	1
O=C(N=C1c2ccccc2CN1c1ccc(F)cc1)c1ccc(Cl)nc1	-0.3	88	-103	75	1	i	1.2
[S-]C(=Nc1ccc(Cl)cc1)N[n+]1ccccc1	-1.9	90	46	106	-14	i	0.85
CC(C)C[C@H](NC(=O)c1nc[nH]c1C(=O)N1CCc2ccccc2C1)C(=O)OCc1ccccc1	x	99	x	x	x	i	0.91
Cc1ccccc1S(=O)(=O)/N=C(/Nc1c(C)n(C)n(-c2ccccc2)c1=O)c1ccccc1	x	108	-50	123	-3	i	0.92
O=C(CCCSc1ccccc1)Nc1nc(-c2ccco2)c(-c2ccco2)s1	-0.1	111	76*	73*	-5	u	x
CC1(C)CC(=O)C2=C(C1)OC1OC(=O)CC21C (stereo not given)	x	102	x	x	0	i	1
Cc1cc2cc(CNC(=O)c3cccs3)ccc2[nH]1	-2.7	97	x	x	-7	i	0.99
CCOC(=O)Cn1c(=O)c2c(nc(Br)n2Cc2ccccc2Cl)n(C)c1=O	-2.2	103	-19	80	-3	i	0.85
COCCNC(=S)Nc1ccccc1Cc1ccccc1	x	103	x	x	-8	i	0.85
Cc1cc(N/N=C/c2cccc(Cl)c2)nc(NCc2ccccc2)n1	-0.6	100	x	x	10	i	0.98
Cc1snc(S(=O)(=O)Cc2c(Cl)cccc2Cl)c1C#N	0.7	101	-7	90	2	i	0.97
COc1ccc([C@@H]2C[C@H]3CN(c4ccccc4)C(=O)[C@]34CCCN24)c(OC)c1OC	x	108	x	x	5	i	1.1
COC(=O)C1C2C=CC3(CN(c4ccc(Cl)c(F)c4)C(=O)C13)O2 (stereo not given)	-1.5	106	x	x	0	i	0.93
COc1cccc(-c2cc(C(=O)O)no2)c1	-2.0	112	-207	92	-8	i	1.1

Some of the entries so far, with two lines to a compound:
Value order: GALR2 ag	RGS16-Gao HTS	INS promoter inh	INS promoter inh cell count	PKD1 kinase inh	HSV replic up	HSV replic up primary fold
Cc1cc(N/N=C/c2cccc(Cl)c2)nc(NCc2ccccc2)n1
→ -0.6	100	x	x	10	i	0.98
Cc1snc(S(=O)(=O)Cc2c(Cl)cccc2Cl)c1C#N
→ 0.7	101	-7	90	2	i	0.97

(continued)
SMILES	GALR2 ag	RGS16-Gao HTS	INS promoter inh	INS promoter inh cell count	PKD1 kinase inh	HSV replic up	HSV replic up primary fold
O=C(CSc1nnc(-c2ccco2)n1Cc1ccccc1)NC(=O)NCc1ccco1	-0.6	105	x	x	-14	i	0.97
CC(NC=C1C(=O)OC(C)(C)OC1=O)C(=O)O (stereo not given)	x	100	x	x	-4	i	0.84
C=C1C(=O)[C@@]23[C@H](O)C[C@@H]4C(C)(C)CC[C@H](O)[C@]4(C)[C@@H]2C[C@H](O)[C@@H]1[C@H]3O	-2.0	37	-55	48	-8	i	0.61
Nc1nc(Nc2ccccc2F)nc(NCCO)c1[N+](=O)[O-]	x	100	x	x	x	i	0.9
O=C(Nc1nnc(C2CC2)s1)c1n[nH]c(=O)c2ccccc12	x	101	x	x	x	i	0.9
CCCc1nc(SCC(=O)Nc2ccccc2OC)c2c(=O)n(C)c(=O)n(C)c2n1	1.1	163	x	x	-7	i	0.9
COc1cccc(C=NCC(C)N=Cc2cccc(OC)c2O)c1O (stereo not given)	-1.1	79	54	175	-15	i	0.94
CC(SCc1ccccc1)C(=O)NCc1ccccn1 (stereo not given)	x	104	x	x	4	i	0.82
N#Cc1c(-c2ccccc2)cc(C2CC2)nc1SCC(=O)c1cccs1	-0.7	107	34	82	-11	x	x
O=c1[nH]c2ccccc2c(O)c1-c1ccccc1[N+](=O)[O-]	x	105	27	139	2	i	1
OCC1(CCc2ccccc2)CCN(Cc2ccc(OC(F)F)cc2)CC1	x	99	x	x	-5	i	1
O=C(O)[C@@H]1[C@@H]2C[C@@H]2CN1c1ncccc1[N+](=O)[O-]	x	98	-94	146	-1	i	1.2
CCN1CCC2(CC1)N=C(c1ccc(F)cc1)C(=S)N2	x	103	14	95	0	i	0.96

High-throughput results as filed in PubChem.

This is a random part of the collection; overall some 1.3% were active at least once.
